VACV mCherry inh = qHTS for Stage-Specific Inhibitors of Vaccinia Orthopoxvirus: mCherry Reporter Primary qHTS; Potency, µM (titrated, usually from 36.5 µM), inactives show at the top dose activity change, negative = inhibition, actives largely listed as inhibitors; 0.63% of 310,000 active; Vaccinia virus mCherry reporter infection, fluorescence; about a quarter of the inactives have no number; AID 720579, 2013; active = well fitted inhibition curve with a large enough effect; inconclusive = small, poorly fitted or top-dose-only effect; inactive = no such curve, though single readings can be large or run the other way; tested in A549 cells; also: nearly all actives have a fitted effect of over 35% in size; inactives centre near -10
VACV Venus inh = qHTS for Stage-Specific Inhibitors of Vaccinia Orthopoxvirus: Venus Reporter Primary qHTS; Vaccinia virus Venus reporter expression, fluorescence; Potency, µM (top dose mostly 36.5 µM), without a hit: at the highest dose activity change, negative = inhibition, hits mostly inhibitors; 0.46% of 330,000 active; active means well fitted inhibition curve with a large enough effect; inconclusive means small, poorly fitted or top-dose-only effect; inactive means no such curve, though single readings can be large or run the other way; tested in A549 cells; also: nearly all actives have a fitted effect of over 30% in size; inactives centre near -10
Active calls of the source: *; i = inactive; ? = inconclusive; nt = no result given; & = joins results of further samples; [ ] = remark or other dose. % is scaled to controls: 0 for no effect and ±100 for the full control effect; potency is read from the fitted curve at half-maximal effect.

Values in the order: VACV mCherry inh, VACV Venus inh
- COC(=O)CNC(c1ccccc1)c1cc(Br)ccc1NC(C)=O (stereo unspecified)
 : 6%, 5%
- COc1cccc(OC)c1C(=O)Nc1ccc(CN2CCOCC2)cc1
 : -8%, -8%
- CCCCC1=C(C(=O)OCC)C(C(=O)OCC)Oc2ccccc21 (stereo unspecified)
 : -17%, -5%
- O=C(O)C1CCN(C(=O)c2ccccc2Cl)CC1
 : -11%, -7%
- O=C(/C=C/c1ccc(Cl)cc1Cl)N(Cc1ccccc1)C1CCS(=O)(=O)C1 (stereo unspecified)
 : -25%, -14%
- COC(=O)CNC(=O)c1cccc(-c2ccc(OC)cc2)c1
 : i, -7%
- CN(C)/C=N/N(C)c1ncccc1[N+](=O)[O-]
 : -19%, -12%
- CC1CCN(S(=O)(=O)c2ccc3nc(N4CCN(c5ccccc5)CC4)ccc3c2)CC1
 : -18%, -16%
- CCOC(=O)c1sc(NC(=O)CN2C(=O)NC3(CC(C)CC(C)(C)C3)C2=O)cc1C (stereo unspecified)
 : ?, ?
- Cc1ccc(CNC(=O)c2cc(-c3ccc(Cl)cc3)on2)cc1
 : -10%, -3%
- O=C(c1cc(-c2ccc(Cl)cc2Cl)on1)N1CCN(C(=O)c2ccco2)CC1
 : -4%, -18%
- Clc1ccc2nc(-c3ccccc3)nc(C(Cl)Cl)c2c1
 : -15%, ?
- Cc1cc(C)n(-c2ccc(C(=O)NCc3ccc(F)cc3)cc2)n1
 : i, -12%
- CC(C)(C)c1cc(NC(=O)c2cc(F)c(F)c(F)c2F)no1
 : nt, -7%
- COc1ccc2c(Cl)cc(NC(=O)Nc3c(C)cccc3C)nc2c1
 : -15%, ?
- Cc1c(CN2CCC(Oc3ccc(C(=O)N4CCCCC4)cc3)CC2)cnn1C
 : -9%, -10%
- CCOC(=O)c1nnn(-c2nonc2N)c1CSc1nnc(N)s1
 : -5%, -7%
- N#CCCn1cc(C(=O)NCc2ccccc2)c(-c2cccs2)n1
 : -15%, -10%
- O=C(NCCOC(=O)c1ccc(Cl)c(S(=O)(=O)N2CCCCC2)c1)c1ccncc1
 : -24%, -13%
- COC(=O)c1cc(-c2ccccc2)n[nH]1
 : i, -10%
- COC(=O)CC1C(=O)NCCN1C(=O)CSc1nc2ccccc2s1 (stereo unspecified)
 : -5%, -4%
- CCC1(O)C(=O)OCc2c1cc1n(c2=O)Cc2cc3cc(O)ccc3nc2-1 (stereo unspecified)
 : ?, ?
- COc1cc(OC)cc(C(=O)Nc2cc(NC(=O)c3ccco3)ccc2OC)c1
 : ?, ?
- C[C@@H]1CN([C@H](C)CO)C(=O)CCCn2cc(nn2)CO[C@H]1CN(C)C(=O)Nc1ccnc(N2CCOCC2)c1
 : i, -5%
- Cc1ccnc2c(O)cccc12
 : -12%, 5%
- O=C(c1ccccc1)N1CCN(C2CCCCCC2)CC1
 : nt, ?
- CC(C)C(=O)OCC(=O)NCc1ccccc1Cl
 : -3%, 3%
- CC(OC(=O)c1cc(S(=O)(=O)Nc2ccc(F)cc2)ccc1Cl)C(=O)Nc1ccc2c(c1)OCCO2 (stereo unspecified)
 : -25%, -17%
- CCOc1cc2[nH]c(=S)n(CCCC(=O)NCc3ccco3)c(=O)c2cc1OCC
 : -11%, -6%
- CCOc1ccc(NC(=S)N(Cc2ccc(Cl)cc2)Cc2ccco2)cc1
 : -3%, -14%
- COc1ccc(-c2ccc3oc(-c4ccsc4)cc(=O)c3c2)cn1
 : -6%, -24%
- COc1cc(C(O)c2nc(-c3ccc(F)cc3OC)cs2)ccc1F (stereo unspecified)
 : ?, -12%
- COC(=O)c1c(NC(=O)CN2CCN(c3cccc(Cl)c3)CC2)sc(C)c1C
 : -10%, -8%
- COc1ccc(CCN2C(=O)CC(Cc3cccc(C)c3)C2=O)cc1OC (stereo unspecified)
 : i, -8%
- COc1ccccc1Nc1ncc(C(=O)N2CCN(Cc3ccc(OC)c(OC)c3OC)CC2)c2ccccc12
 : -15%, -19%
- CN(C(=O)c1cccc(C(F)(F)F)c1)C1CCCc2ccccc21 (stereo unspecified)
 : -20%, 2%
- CCN(Cc1nc(-c2ccc(OC)c(OC)c2)no1)C(=O)c1ccoc1C
 : i, -6%
- Cc1nn(-c2ccccc2)c(OC(=O)C(C)C)c1Sc1ccc(Cl)cc1
 : -3%, -1%
- Cc1ccc(N=C2SCCCN2C(=O)c2cccc(N3C(=O)CCC3=O)c2)cc1Cl
 : -12%, -4%
- NC(=O)C1CCN(CC(O)CSc2ccc(F)cc2)CC1 (stereo unspecified)
 : -1%, 3%
- O=C(Nc1c2c(nn1-c1ccc(F)cc1)CS(=O)(=O)C2)C12CC3CC(CC(C3)C1)C2
 : -5%, -10%
- COc1ccccc1OCC(=O)Nc1ccc(-c2nnc(-c3ccco3)o2)cc1
 : -9%, 8%
- CC(=O)N1CCN(C(=O)C2(NC(=O)Nc3cccc(F)c3)CCCCC2)CC1
 : 11%, -1%
- CC(C)C(=O)Nc1ccccc1Cc1ccccc1
 : i, -11%
- O=C(Nc1cccc(N2CCCC2)c1)c1cccs1
 : -14%, -16%

At a glance, 13 of the compounds above:
Values in the order: VACV mCherry inh, VACV Venus inh
- COC(=O)c1c(NC(=O)CN2CCN(c3cccc(Cl)c3)CC2)sc(C)c1C
 : -10%, -8%
- COc1ccc(CCN2C(=O)CC(Cc3cccc(C)c3)C2=O)cc1OC (stereo unspecified)
 : i, -8%
- COc1ccccc1Nc1ncc(C(=O)N2CCN(Cc3ccc(OC)c(OC)c3OC)CC2)c2ccccc12
 : -15%, -19%
- CN(C(=O)c1cccc(C(F)(F)F)c1)C1CCCc2ccccc21 (stereo unspecified)
 : -20%, 2%
- CCN(Cc1nc(-c2ccc(OC)c(OC)c2)no1)C(=O)c1ccoc1C
 : i, -6%
- Cc1nn(-c2ccccc2)c(OC(=O)C(C)C)c1Sc1ccc(Cl)cc1
 : -3%, -1%
- Cc1ccc(N=C2SCCCN2C(=O)c2cccc(N3C(=O)CCC3=O)c2)cc1Cl
 : -12%, -4%
- NC(=O)C1CCN(CC(O)CSc2ccc(F)cc2)CC1 (stereo unspecified)
 : -1%, 3%
- O=C(Nc1c2c(nn1-c1ccc(F)cc1)CS(=O)(=O)C2)C12CC3CC(CC(C3)C1)C2
 : -5%, -10%
- COc1ccccc1OCC(=O)Nc1ccc(-c2nnc(-c3ccco3)o2)cc1
 : -9%, 8%
- CC(=O)N1CCN(C(=O)C2(NC(=O)Nc3cccc(F)c3)CCCCC2)CC1
 : 11%, -1%
- CC(C)C(=O)Nc1ccccc1Cc1ccccc1
 : i, -11%
- O=C(Nc1cccc(N2CCCC2)c1)c1cccs1
 : -14%, -16%

Going on with the list:
| structure | VACV mCherry inh | VACV Venus inh |
| --- | --- | --- |
| COc1ccc(C2CC(=O)Nc3c2c(=O)n(C)c2nc4ccccc4n32)cc1 (stereo unspecified) | 10% | 5% |
| CN1Cc2c(N)cccc2C(c2ccccc2)C1 (stereo unspecified) | -2%&-17% | -19%&-7%&-10% |
| O=C(NCc1ccc(F)cc1)c1cc(S(=O)(=O)N2CCCCC2)c[nH]1 | -9% | -25% |
| CCS(=O)(=O)Nc1cccc(-c2nc3cccnc3s2)c1C | i | -9% |
| CCC(C)Cn1c(C(C)O)nc2ccccc21 (stereo unspecified) | -10% | 4% |
| CC(OC(=O)[C@@H](NS(=O)(=O)c1ccccc1)C(C)C)C(=O)c1c(N)n(C)c(=O)n(C)c1=O (stereo partly specified) | i | -5% |
| NC(=O)C12C(=O)NC(=O)C1(C(=O)O)C21CCCC1 (stereo unspecified) | i | -13% |
| N#Cc1ccccc1S(=O)(=O)N1CCN(C(=O)C2CCCC2)CC1 | i | -12% |
| Cc1ccc(-c2nn3c(-c4ccco4)nnc3c3ccccc23)cc1S(=O)(=O)NCC1CCCO1 (stereo unspecified) | -12% | -13% |
| CCn1c(C(=O)NCc2ccccc2Br)cc2oc3ccccc3c21 | ? | 23% |
| CCCn1nc(C(=O)NC2CCCc3ccccc32)c2ccccc2c1=O (stereo unspecified) | -14% | -13% |
| COC(=O)c1ccc([C@@H]2Nc3c(OC)ccc(C)c3[C@@H]3C=CC[C@@H]32)cc1 | -1% | -12% |
| CCOC(=O)C1CCCN(C(=O)c2ccc3c(c2)sc2nc(-c4ccc(C)cc4C)cn23)C1 (stereo unspecified) | -6% | -10% |
| COc1ccccc1CN1CC(C(=O)N(Cc2cnn(C)c2)C(C)C)CCC1=O (stereo unspecified) | 0% | 1% |
| C=C(CC[C@@H](O)C(C)(C)O)[C@H]1CC[C@]2(C)[C@@H]1CCC1[C@@]3(C)CCC(=O)C(C)(C)C3CC[C@]12C (stereo partly specified) | -8% | -21% |
| CN1CCN2c3ccccc3CC3(C(=O)OC(C)(C)OC3=O)C2C1 (stereo unspecified) | 38%[activator] | 5% |
| CC1=NN2C(=N)/C(=C\c3cc(C)n(-c4ccc(C)cc4)c3C)C(=O)N=C2S1 | i | -14% |
| COc1ccc(C(C(O)C(=O)c2c[nH]c3ccccc23)N2CCN(c3ccccc3)CC2)cc1 (stereo unspecified) | -28% | -23% |
| COc1ccc(/C=N/Nc2ncnc3sc(C)c(C)c23)cc1 | i | -8% |
| Cn1c(-c2ccc(Br)o2)nc2cc(Br)ccc21 | nt | -28% |
| Cc1[nH]c2ccc(F)cc2c1CCN1C(=O)OC(C)(C)C1(C)O (stereo unspecified) | -16% | -9% |
| Cc1ccc(CNC(=O)c2ccc(Br)o2)cc1 | i | -10% |
| CCCN1CCN(CCCNC(=O)CN2C(=O)COc3ccccc32)CC1 | i | 0% |
| CCc1ccc(S(=O)(=O)NCC(O)COc2ccc(OC)cc2)cc1 (stereo unspecified) | -4% | -6% |
| O=C(c1cnn(-c2cccc(F)c2)c1-n1cccc1)N1CCN(c2ccccc2F)CC1 | -9% | -9% |
| COc1ccc(Br)cc1CNc1ccc(S(N)(=O)=O)cc1 | -13% | -3% |
| N#Cc1ccccc1S(=O)(=O)N1CCN(c2nc(-c3cccnc3)nc3ccccc23)CC1 | ? | -24% |
| COc1ccc(-n2nc(C(=O)NCc3ccc(F)cc3)c3c4ccccc4n(C)c3c2=O)cc1 | -12% | -9% |
| Cc1c(CCNC(=O)c2c(F)cccc2F)sc2nc(-c3ccc(F)cc3)nn12 | 1% | -9% |
| O=C(c1noc2c1CCCC2)N1CCc2ccccc2C1 | 26% | -5% |
| O=C(O)c1cc(Cl)c2c(c1)[C@@H]1C=CC[C@@H]1[C@H](c1ccc(S(=O)(=O)N3CCOCC3)cc1)N2 | -2% | 4% |
| Cc1ccc2nc(SCc3nc(-c4ccc(Cl)cc4)no3)[nH]c2c1 | -7% | -7% |
| COC(=O)c1sc2ccccc2c1NC(=O)c1ccc(S(=O)(=O)N2CCCCC2C)cc1 (stereo unspecified) | i | -12% |
| COC(=O)[C@@H]1C[C@@]2(O)[C@@H](O)[C@@H](O)[C@@H](O)C[C@H]2N1C/C=C/c1ccccc1 | i | -2% |
| O=C(Nc1ccc2oc(=O)ccc2c1)c1ccc(-c2cccc(Cl)c2)o1 | -2% | -2% |
| O=C(Cc1ccccc1)NCC(=O)Nc1ccccc1Br | i | -12% |
| COc1ccc(-c2noc(N3CCC(C(=O)NCCCN4CCCCC4)CC3)n2)cc1 | i | -10% |
| COc1ccc2c(-c3ccccc3)cc(SC(C)C(N)=O)nc2c1 (stereo unspecified) | -22% | -21% |
| O=C(NC1CCCC1)C(c1ccc(F)cc1)N1CCC(O)(c2ccc(Cl)cc2)CC1 (stereo unspecified) | -10% | -27% |
| O=C1CC(c2ccccc2)CC(O)=C1C=NCCc1ccccc1 (stereo unspecified) | -4% | -10% |
| COc1cc(OC)c(/C=C/c2ccncn2)c(OC)c1 | -4% | -8% |
| CC(C)[C@@H]1COC(c2cccc(C3=N[C@H](C(C)C)CO3)c2)=N1 | i | ? |
| CCOC(=O)C1=CC[C@@H](c2ccc([N+](=O)[O-])cc2)N(S(=O)(=O)c2ccc(C)cc2)[C@H]1c1ccccc1 | 27% | 5% |
| O=C1C=CC(=O)c2c(O)c(CO)c(CO)c(O)c21 | ? | -21% |
| Cc1cccc(C)c1N1C(=O)c2ccccc2NC(=O)C1C(=O)Nc1ccc(N2CCOCC2)cc1 (stereo unspecified) | i | -11% |
| CC(C)C[C@H]1CN([C@@H](CC(C)C)CN2CCCC2CN2C(=S)NC[C@@H]2Cc2ccc(O)cc2)C(=S)N1CC1CCCCC1 (stereo partly specified) | ? | ? |
| Cc1cc(C)nc(N/N=C/c2c(CO)cnc(C)c2O)n1 | 13µM* | -15% |
| Cn1c(Cl)c(/C=N/OC(=O)c2ccccc2Cl)c2ccccc21 | nt | -21% |
| COc1cccc(NC(=O)CN2C(=O)NC(C)(CC(C)C)C2=O)c1 (stereo unspecified) | -2% | -16% |
| C=CCn1c(C(C)NC(=O)c2ccc(C)cc2)n[nH]c1=S (stereo unspecified) | i | -8% |
| Cc1cc2nc(-c3ccco3)c(Cc3cccc(F)c3)n2c(C)c1Br | 9% | 6% |
| Cc1ccc(OCC(=O)Nc2ccc(N3CCN(S(C)(=O)=O)CC3)cc2)c(C)c1 | -6% | -12% |
| O=C(CCc1nnc2n(Cc3ccccc3Cl)c(=O)c3ccccc3n12)Nc1ccccc1 | -21% | -20% |
| CCOC(=O)c1ccc(N2C(=O)CC(N3CCC(O)(c4ccc(Cl)cc4)CC3)C2=O)cc1 (stereo unspecified) | -10% | -4% |
| COc1ccc(CC(=O)NNC(=O)c2cccnc2)cc1OC | -2% | -1% |
| CCOc1ccccc1NC(=O)COc1ccc2ccc(=O)oc2c1 | -18% | -15% |
| O=C(O)c1cccc2c1-c1c(cccc1[N+](=O)[O-])C2 | -1% | 13% |
| Cc1ccc(N=Nc2ccc(O)cc2)c(Br)c1 | -16% | -29% |
| CCCCC(=O)Nc1cc(NC(=O)CCCC)cc(C(=O)O)c1 | i | -9% |

Source: PubChem BioAssay
